Source: PubChem BioAssay (National Center for Advancing Translational Sciences (NCATS))
Vaccinia mCherry: qHTS for Stage-Specific Inhibitors of Vaccinia Orthopoxvirus: mCherry Reporter Primary qHTS | Vaccinia virus mCherry reporter infection, fluorescence; about a quarter of the inactives have no number | Potency, µM (titrated, usually from 36.5 µM), without a hit: at the top dose activity change, negative = inhibition, hits mostly inhibitors | 310,000 tested, 0.63% active; active = well fitted inhibition curve with a large enough effect; inconclusive = small, poorly fitted or top-dose-only effect; inactive = no such curve, though single readings can be large or run the other way; tested in A549 cells; also: nearly all actives have a fitted effect of over 35% in size; inactives centre near -10
VACV Venus inh: qHTS for Stage-Specific Inhibitors of Vaccinia Orthopoxvirus: Venus Reporter Primary qHTS | Potency, µM (highest dose often 36.5 µM), without a hit: at the highest dose activity change, negative = inhibition, most hits filed as inhibitors | Vaccinia virus Venus reporter expression, fluorescence | 330,000 tested, 0.46% active; active means well fitted inhibition curve with a large enough effect; inconclusive means small, poorly fitted or top-dose-only effect; inactive means no such curve, though single readings can be large or run the other way; tested in A549 cells; also: nearly all actives have a fitted effect of over 30% in size; inactives centre near -10
Numbers without * were called inactive; i = inactive; ? = inconclusive; . = no result given; & = joins results of further samples; [ ] = dose if it differs, or a comment. % is scaled to controls: 0 for no effect and ±100 for the full control effect; potency is read from the fitted curve at half-maximal effect. Compounds were not picked by outcome. Share with any hit: about 0.88%.

Results follow in this order: Vaccinia mCherry | VACV Venus inh
- Cc1[nH]n(-c2ccccc2)c(=O)c1N=Nc1ccccc1
    i | -5.6%
- Cc1cc(C(F)F)n2nc(C(=O)Nc3cccc(S(=O)(=O)N4CCOCC4)c3)nc2n1
    -16.6% | -13.3%
- CCCn1nnc(NC(=O)c2cccc(OCC(C)C)c2)n1
    -19.5% | -9.0%
- CCn1c(SCC(=O)Nc2cc(C)ccc2F)nnc1-c1ccccc1O
    -10.9% | -10.2%
- CCN(CC)c1ccc2cc(C(=O)Nc3ccccn3)c(=O)oc2c1
    -14.4% | -4.9%&-11.0%
- Cc1cc(C)n(-c2ccccc2C#N)n1
    4.2%[7.34 µM] | -13.7%[7.34 µM]
- O=C(NC1CCCc2ccccc21)c1ccccc1Cl (stereo not drawn)
    -24.8% | -3.3%
- COc1ccc(N2CCN(CCCNC(=O)c3ccc4nc(Cc5ccccc5)oc4c3)CC2)cc1
    -26.9% | -27.0%
- CN(Cc1cnc2nc(N)nc(N)c2n1)c1ccc(C(=O)NC(CCC(=O)O)C(=O)O)cc1C(F)(F)F (stereo not drawn)
    0.316µM* | 1.12µM*
- CC(C)(C)OC(=O)C(C1NC(C(=O)O)C(C)(C)S1)N1C(=O)c2ccccc2C1=O (stereo not drawn)
    i | -7.8%
- COc1ccc(OC)c(CCNc2ncnc3onc(-c4ccc(Cl)cc4)c23)c1
    -4.3% | -8.1%
- Cc1ccccc1NC(=O)/C(=C/c1cccs1)NC(=O)c1ccco1
    i | -10.0%
- COc1cc(/C=C2\CCCc3c2nc2ccccc2c3C(=O)O)cc(Cl)c1O
    -4.9% | 9.8%
- COc1ccccc1CCC(=O)N1CCC(n2nccc2NC(=O)CC(C)C)CC1
    i | -9.7%
- O=C(NCCO)/C(=C\c1ccc(Br)cc1)NC(=O)c1cccs1
    -14.0% | -10.2%
- Cn1c(N)c(S(=O)(=O)N2CCN(c3ccccc3)CC2)c(=O)n(C)c1=O
    -4.5% | 1.2%
- CCCn1nnc(NC(=S)NC(=O)/C=C/c2ccc(Cl)cc2)n1
    ? | ?
- CC(NC(=O)CNC(=O)c1sc2ccccc2c1Cl)c1cccnc1 (stereo not drawn)
    -18.7% | -10.4%
- FC(F)(F)c1cc(Cl)c2nc(-c3ccc(Cl)cc3)c(Cc3ccsc3)n2c1
    -8.6% | -7.4%
- Cc1c(NC(=O)Nc2ccccc2)c(=O)n(-c2ccccc2)n1C
    i | -5.0%
- Cc1nnnn1/C(=C\c1ccccc1)C(=O)OCC(=O)NC(C)(C)C
    ? | -27.6%
- CCn1c2ccccc2c2cc(NC(=O)CSc3nnc(-c4cccc(F)c4)o3)ccc21
    . | -19.9%
- CCOC(=O)CSc1nnnn1-c1cc(OC)ccc1OC
    i | -5.2%
- O=C(Nc1ccsc1C(=O)O)c1cccc(C(F)(F)F)c1
    i | -14.4%
- CCOc1ccc(Cl)cc1S(=O)(=O)NC1CCCC1
    -5.5% | -12.0%
- CCOC(=O)N1CCN(C(=O)COc2ccc3c(c2)C(=O)CC2(CCN(C(C)=O)CC2)O3)CC1
    -22.1% | -9.2%
- Nc1ccc(C(=O)Oc2ccccc2)c(O)c1
    -17.1% | -13.1%
- Cc1ccc2c(c1)c1ncnc(N3CCOCC3)c1n2C
    ? | -19.4%
- COCCN1C(=O)c2[nH]nc(-c3ccccc3O)c2C1c1ccc(OCc2ccccc2)c(OC)c1 (stereo not drawn)
    -11.9%[7.34 µM] | 2.0%[7.34 µM]
- CC1=C(C(=O)Nc2ccc(Cl)cc2)C(c2ccc(C(F)(F)F)cc2)n2nnnc2N1 (stereo not drawn)
    -6.0% | -11.6%

Some of these compounds in order of number of heavy atoms, rising:
Results follow in this order: Vaccinia mCherry | VACV Venus inh
- O=C(NC1CCCc2ccccc21)c1ccccc1Cl (stereo not drawn)
    -24.8% | -3.3%
- COc1ccc(N2CCN(CCCNC(=O)c3ccc4nc(Cc5ccccc5)oc4c3)CC2)cc1
    -26.9% | -27.0%
- CN(Cc1cnc2nc(N)nc(N)c2n1)c1ccc(C(=O)NC(CCC(=O)O)C(=O)O)cc1C(F)(F)F (stereo not drawn)
    0.316µM* | 1.12µM*

Remaining list, next part
Results follow in this order: Vaccinia mCherry | VACV Venus inh
- COC(=O)c1cc(CNC(=O)c2ccccc2OC)cc(NC(=O)c2ccccc2F)c1
    -20.8% | -11.2%
- COc1ccc(-c2noc(CCC(=O)N3CCN(c4cccc(OC)c4)CC3)n2)cc1
    i | 0.0%
- Cc1ccccc1NC(=O)c1sc2nc[nH]c(=O)c2c1C
    i | -13.0%
- NC(=O)CSc1nc2cc([N+](=O)[O-])ccc2n1-c1cccc(C(F)(F)F)c1
    -4.6% | -5.5%
- O=C(Oc1cccc(Br)c1)c1cccnc1
    -20.1% | -7.9%
- O=C(O)c1cccc(Cn2c(Cl)c(/C=N/NC(=O)c3ccccc3)sc2=O)c1
    . | -11.9%
- O=C(c1ccc2c(=O)n3c(nc2c1)CCCCC3)N1CCN(c2ccc(F)cc2)CC1
    -4.8% | -19.6%
- CCOC(=O)NC(=O)COC(=O)c1ccc(Sc2ncn[nH]2)c([N+](=O)[O-])c1
    -12.7% | -4.9%
- CCOc1ccc(NC(=O)CNS(=O)(=O)c2ccc(Br)s2)cc1
    -15.9% | -10.0%
- Cc1cccc(NC(=O)C2CCCN2S(=O)(=O)c2ccc(Cl)cc2)n1 (stereo not drawn)
    -2.4% | -7.8%
- COC(=O)c1ccc(CN2C(=O)C(C)ON=C2c2ncccc2C)o1 (stereo not drawn)
    i | -1.4%
- N#CCC(=O)Nc1ccc(C(=O)OCC(=O)N2CCN(C(=O)c3ccco3)CC2)cc1
    -12.3% | -5.9%
- COc1ccc(CCNC(=O)CCCn2nc(C)c3sc4ccccc4c3c2=O)cc1OC
    -12.9% | 3.6%
- Cc1ccc2oc(=O)c3cnn(CC(=O)Nc4cc(-c5cccc(F)c5)no4)c3c2c1
    i | -12.5%
- Cc1c(Cl)cccc1NC(=S)N1CCN(S(=O)(=O)c2cccs2)CC1
    -17.8% | 7.0%
- O=C(CC1C(=O)NCCN1CC(c1ccccc1)c1ccccc1)NCC1CCOCC1 (stereo not drawn)
    -15.3% | -12.0%
- CC1CCCC2(C1)NC(=S)N(c1ccccc1)N2 (stereo not drawn)
    i | -13.1%
- CN(CC(=O)Nc1cccc(F)c1)C(=O)/C=C/c1cc(Br)ccc1OC(F)F
    -21.2% | -27.3%
- O=C(c1ccccc1[N+](=O)[O-])N1CCCN(C(=O)c2ccccc2[N+](=O)[O-])CC1
    -9.8% | -8.5%
- N#Cc1c(NC(=O)CCn2cnc3ccccc3c2=O)oc(-c2ccccc2)c1-c1ccccc1
    . | ?
- CC(C)Cn1c(N)c(C(=O)COC(=O)c2cc(S(=O)(=O)N3CCOCC3)ccc2Br)c(=O)n(C)c1=O
    -17.0% | -13.2%
- CNC(=O)c1c(NC(=O)c2ccc(S(=O)(=O)N3CCCC(C)C3)cc2)sc2c1CCC2 (stereo not drawn)
    -24.7% | -15.4%
- CCCCCCCCCCCCCCCC(=O)N[C@@H](COP(=O)(O)O)C(=O)O
    -10.4%[3.33 µM] | -7.4%[3.33 µM]
- CCOc1ccc(C(=O)NC2CCN(C(=S)NCc3ccco3)CC2)cc1
    i | -19.0%
- Cc1cccc(OCCN2C(=O)C(=O)c3cccc(C)c32)c1
    -1.0% | -8.9%
- COC(=O)c1cc(S(=O)(=O)N2CCN(c3ccc(F)cc3)CC2)cn1C
    -17.4% | -9.2%
- COc1ccc(S(=O)(=O)N2CCCN(CC(=O)Nc3ccc(NC(C)=O)cc3)CC2)cc1
    -17.5% | -13.1%&-5.2%
- CCC(=O)N1CCc2cc(Br)cc(S(=O)(=O)N3CCCC(C(=O)Nc4cccc(F)c4)C3)c21 (stereo not drawn)
    -13.4% | -4.9%
- O=C(Nc1ccccc1)Nc1ccccc1NS(=O)(=O)c1cccs1
    -13.5% | -17.8%
- CC1(C)Cc2c(c(N3CCOCC3)nc3sc4c(NCc5ccco5)nnnc4c23)CS1
    . | ?
- COc1ccc(-c2nnn(CC(=O)N(CCN3CCOCC3)C(C(=O)NC3CCCC3)c3ccco3)n2)cc1 (stereo not drawn)
    -0.6% | -7.4%
- Cc1cccc(-n2c(SCC(=O)Nc3ccc(C)c(C)c3)nc3n[nH]c(C)c3c2=N)c1
    -10.5% | -20.4%
- COC(=O)c1ccc(Cn2c(SCC(=O)Nc3ccc(F)cc3)nc3ccccc32)cc1
    0.1% | 11.0%
- CCCCn1c(N)c(N(C)C(=O)c2cc3c(F)cccc3s2)c(=O)[nH]c1=O
    -7.8% | -5.7%
- COc1cccc(C(=O)Nc2c3c(nn2-c2ccc(Cl)cc2)CS(=O)(=O)C3)c1
    0.6% | 0.2%
- CCOc1cc2[nH]c(=O)n(Cc3ccc(C(=O)N4CCN(c5ccccc5)CC4)cc3)c(=O)c2cc1OCC
    ? | ?
- CC1C(=O)N(Cc2cn(Cc3ccco3)nn2)CCS(=O)(=O)N1Cc1ccc(-c2ccc(F)cc2)cc1 (stereo not drawn)
    -1.5% | -22.2%
- CCC1SC2=NC(C)=C(C(=O)OC)C(c3ccc(C)cc3)N2C1=O (stereo not drawn)
    . | -0.5%
- CNc1nc(NCC2CCCCC2)c2sccc2n1
    3.9% | -14.8%
- Cc1cccc(N2CCN(c3ccc(C(=O)O)cc3NC(=O)c3ccccc3F)CC2C)c1 (stereo not drawn)
    -2.5% | 4.2%
- COc1ccc(OCC(=O)Nc2ccc(S(=O)(=O)Nc3cc(C)on3)cc2)cc1
    1.4% | 3.7%
- COc1ccccc1CNC(=O)C(C)n1nc(C)c2c(C)n(-c3ccccc3)nc2c1=O (stereo not drawn)
    -30.0% | -13.2%
- Cc1ccc(NC(=O)CN(C)C(=O)CSc2nc3ccccc3c(=O)n2CCO)cc1
    -12.5% | -12.9%
- CCCN(C(=O)c1cc2c(s1)-c1ccccc1OC2)c1ccc(C(C)C)cc1
    -2.7% | 5.5%
- O=C(COC(=O)/C=C/c1ccccc1)Nc1cccc(Oc2ccccc2)c1
    -14.5% | 2.9%
- Cc1cc(C)nc(NC(=O)c2ccc(Cl)cc2)n1
    4.4% | -2.7%
- O=C(NC(=S)Nc1ccc(S(=O)(=O)Nc2nccs2)cc1)c1ccc(F)c(F)c1
    -14.5% | -1.4%
- O=C(Nc1nc2c(s1)CCCC2)c1ccc2ncsc2c1
    19.4% | -10.1%
- CCN(C(=O)Cn1nc2c3cc(F)ccc3n(Cc3cccc(C)c3)cc-2c1=O)c1cccc(C)c1
    -9.5% | -10.2%
- COC(=O)[C@@]12C[C@@H](CC(=O)NCCc3ccccc3OC)C(=O)N(CCc3ccc(OC)c(OC)c3)C1=CCC(C)(C)C2
    ? | ?
- CCOc1nc2cnccc2n(CC(=O)Nc2cccc(C)c2)c1=O
    -4.8% | 2.6%
- Cn1c(SCc2cc(=O)[nH]c3ccccc23)nnc1-c1ccco1
    . | ?
- CCC(=O)N1CCC1(C)C(=O)NCc1ccc(SC)cc1 (stereo not drawn)
    i | -15.4%
- O=C(Nc1ccncc1)c1ccc(-c2ccccc2)cc1
    -6.5% | ?
- Cc1cccc(COCC(Cc2ccccc2)N2CCN(C(=O)c3ccc(C(F)(F)F)cc3)CCC2=O)c1 (stereo not drawn)
    i | -25.5%
- COc1ccc(/C=N/n2cc(-c3ccc(OC)cc3)nc2N)cc1
    ? | -22.0%
- N#Cc1cc2c(nc1S(=O)(=O)Cc1ccccc1)CCCC2
    -8.2% | -13.0%
- CC1(C)CC2(CC(C)(C)NC(=O)N2)NC(=O)N1
    -12.6% | -4.4%
- CCOC(=O)c1ccccc1NC(=O)C1CCN(c2ncnc3sc(C)c(C)c23)CC1
    -11.0% | -11.4%
- O=S1(=O)CCOC[C@H](CC2CCCCC2)N1Cc1ccc(F)cc1
    -11.4% | -4.5%&-27.3%

(continued)
Results follow in this order: Vaccinia mCherry | VACV Venus inh
- Clc1cc(Cl)c(Cl)cc1Cl
    i | -12.9%
- COc1ccc([C@H]2Oc3cc(O)cc(O)c3C(=O)C2[C@@H]2C(=O)c3c(O)cc(O)cc3O[C@@H]2c2ccc(OC)cc2)cc1 (stereo partly drawn)
    i | ?
- CCCCN(CC)CCCNC(=O)C1CCN(c2nc3ccc(CC)cc3s2)CC1
    -22.3% | -26.6%
- COc1ccccc1OCC(=O)Nc1ccc2c(c1)n(C)c(=O)n2C
    -7.9% | -4.8%
- CC1CN(Cc2ccccc2)C(=O)N(c2ccccc2)C1=O (stereo not drawn)
    i | -11.1%
- O=C(CCC1N=C2c3ccccc3N=C(SCc3ccccc3Cl)N2C1=O)NCCc1ccccc1 (stereo not drawn)
    -18.2% | -10.0%
- [O-][n+]1c2c(nn1-c1ccc(Cl)c(Cl)c1)-c1nonc1CC2
    -1.6% | 4.7%
- O=C(COC(=O)c1cccc(NS(=O)(=O)/C=C/c2ccccc2)c1)Nc1ccccc1OC(F)F
    -23.2% | -17.7%
- Cc1c(Cl)cccc1-n1ncc(C(=O)Nc2ccc(F)cc2F)c1C1CCN(C(=O)OC(C)(C)C)CC1
    -14.7% | -24.2%

An excerpt of these results, in CSV form.
mol,Vaccinia mCherry,VACV Venus inh
COc1ccc([C@H]2Oc3cc(O)cc(O)c3C(=O)C2[C@@H]2C(=O)c3c(O)cc(O)cc3O[C@@H]2c2ccc(OC)cc2)cc1 (stereo partly drawn),i,?
CCCCN(CC)CCCNC(=O)C1CCN(c2nc3ccc(CC)cc3s2)CC1,-22.3%,-26.6%
COc1ccccc1OCC(=O)Nc1ccc2c(c1)n(C)c(=O)n2C,-7.9%,-4.8%
